# Mtb hypoxia inh: PubChem AID 1159583; hit rate 0.1% among 300,000; fluorescence inhibition, % (no concentration beside the values); M. tuberculosis hypoxia-regulated fluorescent reporter, fluorescence;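 active = 35 to 45% if threefold the growth effect, above 45% if 1.5-fold the growth effect; inactive = the rest, general growth blockers included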;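 note: wells of about 50 µL received 100 nL stock; 0% = vehicle wells and 100% = reference inhibitor wells; whole bacteria with a GFP reporter of the hypoxia response; strong numbers were not always called active; many hits fall short of the cut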
# RN4220 kill: growth inhibition of S. aureus RN4220, primary screen, OD600. inhibition, % (test concentration not listed). 16 h. hit rate 0.33% among 330,000. AID 1259311, 2017;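 active = z-score of -3 or lower and OD600 up to 0.18 on both plates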;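 note: plate controls were untreated cells for no effect and reference antibiotic for full effect; stock transfer was 100 nL into about 80 µL; one replicate is shown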
# BJeLR viability: MLPCN primary cell-based screen for lethality selective to Ras in HRASV12 cells; BJeLR (HRASV12) viability, CellTiter-Glo ATP luminescence, 48 h; reference of the scale not given here; inhibition, % (concentration not given with the values); hit rate 0.17% among 300,000;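 active = replicate mean above 50%; inconclusive = above 50% but judged a plate artefact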;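 note: 50 nL library stock added to about 25 µL; numbers are from one replicate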
# Bead autofluor: compound fluorescence in toxin protease inhibitor counterscreen; compound autofluorescence counterscreen, microsphere flow cytometry; active compounds read high; fluorescence intensity (no concentration beside the values); hit rate 3.1% among 360,000; AID 624483;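 active = at least 3 SD above the mean of all compounds, about 16000 in these data; inconclusive = too few beads counted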;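 note: 100 nL of 1 mM stock went into each well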
# PrP 5UTR inh: inhibition of PrP 5' UTR reporter expression. cell-based PrP 5' UTR mRNA reporter, plate reader. inhibition, % (test concentration not listed). hit rate 0.35% among 340,000;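 active = every replicate at 50% or more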;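 note: 0 = median of the neutral control wells; tested in H4 reporter cells; numbers are from one replicate; inactives centre near -14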
# Sa ugtP lethal: growth inhibition of ugtP-null S. aureus, primary screen, RN4220 ugtP deletion, OD600 | 16 h; some inactives read as strong as hits | AID 1259309, 2017 | hit rate 0.54% among 330,000 | growth inhibition, % (concentration not given with the values);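 active = z-score under -3 and OD600 up to 0.15 on both plates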;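 note: plate controls were untreated wells for no effect and antibiotic for full effect; wells of about 80 µL received 100 nL stock; the first replicate is given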
# Mtb hypoxia inh growth: recorded beside Mtb hypoxia inh, whose call it bears; growth inhibition, %; measured here: M. tuberculosis growth (absorbance);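 0% = vehicle and 100% = reference antibiotic; read after six days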
# * marks the source's active call; other numbers are inactive results; ? = inconclusive; · = no result given. Random draw from the library; about 4.1% have a hit in one of these screens.
SMILES,Mtb hypoxia inh,Mtb hypoxia inh growth,RN4220 kill,BJeLR viability,Bead autofluor,PrP 5UTR inh,Sa ugtP lethal
CCN(CCCNC(=O)C1CCC(=O)N1Cc1ccc(C)cc1)c1cccc(C)c1 (stereo unspecified),5,6,5.7,-6,3196,-34,-6
O=C(NC1CCCc2ccccc21)c1cn2ccccc2n1 (stereo unspecified),9,2,11,-8,4157,-28,7
O=C(CCN1C(=O)/C(=C/c2ccc(F)cc2)SC1=S)NNC(=O)c1cccnc1,8,1,3.5,-3,8650,7,-4
Cc1ccccc1-c1nnc(SC(C)C(=O)NC2CCCC2)o1 (stereo unspecified),-1,4,-0.9,·,3632,-23,1
Cc1ccc(NCc2ccc(O)c3ncccc23)cc1C,-7,5,-1.5,4,2609,-25,-7
O=C(c1cccc(F)c1)N1CCc2ccccc2C1,16,14,3.3,-7,4352,-16,4
Cc1cc(OC(=O)c2ccccc2Cl)c([N+](=O)[O-])c(=O)[nH]1,9,6,2.3,4,5686,-14,15
O=C(O)CN1C(=O)/C(=C/c2ccc(N3CCCCC3)o2)SC1=S,·,·,5.7,23,4955,-11,0
CCOc1ccc(CNC(=O)c2cc3oc4ccccc4c3n2C)cc1,4,8,3.5,6,4246,-34,18
C#CCOc1ccc(C=NO)cc1Cl,-3,13,3.4,·,·,·,5
COc1cc(OC)c(-c2cc(C(=O)O)ccc2OC)c(OC)c1,8,-3,5.7,8,2188,-19,10
COc1ccc(N2CC(C(=O)N3CCN(C(=O)c4ccco4)CC3)CC2=O)cc1 (stereo unspecified),-2,-3,2.3,1,3113,-14,8
CC1CCC/C(=N\Nc2ccc(Cl)c(C(=O)O)c2)C1 (stereo unspecified),·,·,·,-2,2664,-51,·
CC(C)NC(=O)CC(=O)NN=Cc1c(F)cccc1Cl,-11,-1,4.0,·,·,·,-2
C=CCNC(=O)c1cnc2n(c1=O)CCS2,6,2,3.2,-6,5790,-20,14
Cc1cc(=O)oc2cc(OCC(=O)NCc3ccco3)ccc12,5,2,4.2,-2,10520,-2,1
CCOC(=O)CSc1nc2sc3c(c2c(=O)n1C1CCCCC1)CCN(C)C3,13,18,3.0,9,4970,0,38
Cc1ccc(C(=O)NC(NC(=O)c2ccc(C)cc2)c2cccc([N+](=O)[O-])c2)cc1,-4,7,-4.7,3,2433,-33,-31
CCOc1ccc(C2/C(=C(/O)c3ccc4c(c3)CC(C)O4)C(=O)C(=O)N2CCCn2ccnc2)cc1OCC (stereo unspecified),-2,5,1.8,-10,5865,-13,4
O=C(CSC1=NS(=O)(=O)c2ccccc21)Nc1ccccc1,1,-1,13,-1,6316,-46,24
Cc1ccc(C2c3c(-c4ccccc4O)n[nH]c3C(=O)N2Cc2ccncc2)cc1 (stereo unspecified),14,6,11,-2,4395,-42,8
CC1CN(C(=O)CSc2nnc(-c3cccs3)n2N)CC(C)O1 (stereo unspecified),1,7,1.6,·,8123,-23,3
CC(NC(=O)C(C)N1C(=O)c2cccc([N+](=O)[O-])c2C1=O)c1ccccc1 (stereo unspecified),-1,10,-1.4,-4,3870,-72,0
Cc1ccc(S(=O)(=O)Nc2ccc(C(=O)N3CCCC3)cc2)cc1,2,5,3.5,2,5137,-12,6
O=C(Nc1cccc(F)c1)Nc1cnccn1,-2,-3,2.9,0,5906,-22,11
CC(Sc1nc2c(c(=O)[nH]1)CCCC2)C(=O)Nc1ccc(Br)cn1 (stereo unspecified),4,1,-4.5,3,5728,3,1
Cc1onc(-c2c(Cl)cccc2Cl)c1COC(=O)c1ccc([N+](=O)[O-])cc1,2,-4,3.0,6,3813,-11,8
Cc1cc(C)nc(/N=C2\NC(=O)CC(C(=O)O)N2c2cccc(Cl)c2)n1 (stereo unspecified),4,3,0.1,8,·,·,1
Cc1cccc(CN2CCN(C(=S)Nc3ccccc3)CC2)c1,10,16,5.6,4,4338,-13,5
Cc1ccccc1Nc1c(C)c(C)nc2ncnn12,6,-3,-0.6,-2,3236,-45,6
CCn1c(SCC(=O)NCc2ccco2)nc2cccnc21,3,-2,-0.1,5,3146,-15,3
COCCn1c(N)c(N(Cc2ccccc2)C(=O)c2ccc(N3CCCC3=O)cc2)c(=O)[nH]c1=O,10,2,-1.3,·,3119,-7,4
C=CCCC(Cc1ccc(F)cc1)C(=O)OCC(NC(=O)C(CC=C)CC(=O)NCCO)c1ccccc1 (stereo unspecified),21,7,4.8,·,·,·,6
O=C(Nc1ccccc1C(=O)N1CCCC1)c1ccc(Cl)cc1Cl,0,4,1.8,6,6845,-11,0
COC(=O)c1ccc(N=NN2CCOCC2)cc1,9,19,6.5,-2,2397,-48,13
CN(C)c1nc(OCCOC(=O)c2ccccc2)nc(N(C)C)n1,2,5,6.2,7,8985,-23,1
CC1CC(=O)Nc2ccccc2N1S(=O)(=O)c1ccc(F)cc1F (stereo unspecified),9,6,4.4,-3,3166,-24,9
CC(C)n1cc(C(=O)c2cc(Br)ccc2O)cc(C#N)c1=O,10,13,9.1,1,5224,-16,-6
CCOc1ccc(N/C(N)=N/c2nc(CSc3nnc(C)s3)cc(=O)[nH]2)cc1,0,3,2.8,42,5324,36,-1
COc1ccc(S(=O)(=O)NCc2ccc(C(=O)N3CCC4(CC3)OCCO4)cc2)cc1,3,9,0.7,5,8032,-3,-2
CC(Nc1ncnc2nc[nH]c12)c1ccccc1 (stereo unspecified),9,10,6.8,4,5871,-15,6
CCN1C(=O)NC(=O)/C(=C\c2cn(CC(=O)N3CCCC3)c3ccccc23)C1=O,-1,-9,-0.3,7,5097,-6,4
CCOC(=O)N1CCN(C(=O)c2c(N)no[n+]2[O-])CC1,10,6,7.5,7,4042,-5,7
Cc1nnc(SCC(=O)Nc2cccc([N+](=O)[O-])c2)n1CC1CCCO1 (stereo unspecified),10,6,3.1,-3,3832,-20,10
COCc1c(C(=O)N2CCN(S(=O)(=O)c3ccccc3Cl)CC2)oc2ccccc12,4,-4,-2.2,·,2854,-9,3
CC(=NNC(=O)C1COc2ccccc2O1)c1ccc(Br)s1 (stereo unspecified),10,14,-1.1,·,·,·,-5
CCN(CC)C(=O)CSc1nnc(SC(C)C(=O)NC2CC2)s1 (stereo unspecified),3,2,-1.9,·,8212,-26,0
Cc1ccc(-c2ccc(=O)n(CC(=O)NCCCN3CCCCC3)n2)cc1,17,8,0.4,3,9891,-6,6
O=[N+]([O-])c1ccc(-c2cnc(SC(c3ccccc3)c3ccccc3)[nH]2)cc1,1,3,49,3,9205,-8,24
COc1ccc(CCNC(=O)CN(C)S(=O)(=O)c2cccs2)cc1,3,0,1.7,·,3803,-8,-3
CCCCCCCNC(=O)C1(CC2CC(c3cccc(Br)c3)=NO2)CCNCC1 (stereo unspecified),19,28,-8.8,10,4612,-3,9
COc1cc(C(=O)NCc2nc(C)cs2)ccc1OC1CCN(C(C)=O)CC1,-3,-6,4.4,-5,5270,-13,9
Cc1onc(-c2ccccc2Cl)c1C(=O)N1CCCCC1C(=O)O (stereo unspecified),·,·,-0.2,-1,5657,-9,2
Cc1ccc2c(C(=O)CN3CCSCC3)c(C)[nH]c2c1,·,·,7.2,·,2865,-13,4
Cc1nn(C)cc1/C=N/NC(=S)Nc1ccc(Cl)cc1Cl,·,·,·,8,2008,-16,·
Nc1ccccc1C(=O)Nc1nccs1,-1,0,0.7,6,2605,-33,12
COc1ccccc1-n1ccnc(SCC(=O)NCc2ccccc2Cl)c1=O,·,·,·,-6,?,-1,·
O=C(Nc1cc(S(=O)(=O)N2CCOCC2)ccc1N1CCCC1)c1ccc2c(c1)S(=O)(=O)c1ccccc1C2=O,9,2,5.4,-1,4490,-16,5
O=[N+]([O-])c1ccccc1/C=C/C=N/Nc1ccc(S(=O)(=O)Nc2ccc(Cl)cc2)cc1[N+](=O)[O-],·,·,·,18,2994,-21,·
O=C(NCc1cccc(C(F)(F)F)c1)c1cccc(Cl)c1Cl,-3,8,4.0,-6,1968,-15,-2

# Following part:
SMILES,Mtb hypoxia inh,Mtb hypoxia inh growth,RN4220 kill,BJeLR viability,Bead autofluor,PrP 5UTR inh,Sa ugtP lethal
Nc1nonc1-n1nnc(C(=O)NN=Cc2ccc(O)cc2)c1COc1ccc(F)cc1,-3,0,-5.3,·,·,·,-3
CC(C)CCNC(=O)CO/N=C/c1ccccc1OC(F)F,·,·,·,3,1976,-13,·
Clc1c(OCCCn2ccnc2)ccc2ccccc12,·,·,-7.8,-4,·,-20,3
CCN1CCN(C(=O)c2cc3sccc3n2CC(=O)c2ccccc2)CC1,-6,-3,-3.0,-2,11397,-9,0
CCCc1nn2c(=O)cc(CSCC(=O)Nc3ccc(OC)cc3)nc2s1,5,1,-1.5,-2,5572,-8,6
CCN(CC)c1ccc([N+](=O)[O-])cc1/C=N/NC(=O)CC#N,·,·,·,11,1983,-19,·
O=C(NCCC1CCCCN1S(=O)(=O)c1ccccc1)C(=O)NCc1ccccc1 (stereo unspecified),10,0,2.2,-8,4723,-8,10
O=c1c(Cc2ccc(F)cc2)c(O)ccn1CCc1cnc[nH]1,7,2,1.9,-5,4527,-17,1
COc1ccc(Cc2nc3ccc(S(=O)(=O)N4CCOCC4)cc3[nH]2)cc1OC,3,3,2.4,0,24349*,-19,4
CCOC(=O)Cc1csc(SC(C)C(=O)NC2CCCCC2C)n1 (stereo unspecified),·,·,·,5,?,-9,·
CC1CCCCC1NC(=O)CCc1nc2sc3c(c2c(=O)[nH]1)CCCC3 (stereo unspecified),-5,9,2.9,-9,6265,6,-1
CC1(C)CC(NC(=S)Nc2ccc(S(N)(=O)=O)cc2)CC(C)(C)N1,-2,10,-0.5,2,3589,-21,1
CCOC(OCC)c1nc(N)[nH]c(=O)c1CCCCc1ccccc1,17,9,8.6,·,4056,-4,23
O=C(CN1C(=O)c2cccc3cccc1c23)N1CCN(Cc2ccc3c(c2)OCO3)CC1,·,·,-2.7,2,4285,-19,-10
O=C(NN1c2ccccc2CCc2ccccc21)c1ccccc1Br,8,7,3.1,-2,3568,-33,9
CCOC(=O)N1CCC(N2C(=O)c3ccccc3C2Nc2ccc3c(c2)OCCO3)CC1 (stereo unspecified),·,·,1.2,4,5762,8,6
N=c1n(CCO)c2ccccc2n1Cc1ccccc1,·,·,-2.1,-2,2521,-13,-3

# Source: PubChem BioAssay
